NOMO-1 viab: NOMO-1 AML cell viability reduction, primary screen, STK33 inhibitor project, CellTiter-Glo luminescence. AID 2330, 2010. inhibition, % (no concentration beside the values). 7.5% of 37,000 active. NOMO-1 AML viability, 72 h;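 active means most replicates above 80%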;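 further: wells of about 30 µL received 25 nL stock; 0% = median of vehicle wells and 100% = reference inhibitor level; the first replicate is given; inactives centre near 10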
Starred values were filed as active, the others as inactive. These rows are one share of the data, so the mix of outcomes need not match the whole.

SMILES	NOMO-1 viab
Cc1ccc(-n2c(SCC(=O)NCC3CCCO3)nc3sc(C)c(C)c3c2=O)cc1C (configuration not stated)	1
Oc1cc(Cc2ccccc2)cnc1CN1CCOCC1	14
C[C@H]1CN([C@@H](C)CO)C(=O)Cc2cc(NC(=O)NC3CCCCC3)ccc2O[C@@H]1CN(C)C(=O)Nc1ccc2c(c1)OCO2	20
C[C@H]1CN([C@@H](C)CO)C(=O)Cc2cc(NC(=O)Nc3ccccc3)ccc2O[C@@H]1CN(C)C(=O)Nc1ccc(F)cc1	3
C[C@@H]1CN([C@@H](C)CO)C(=O)c2cccc(NC(=O)Nc3ccc(C(F)(F)F)cc3)c2O[C@@H]1CN(C)S(=O)(=O)c1ccc(Cl)cc1	122*
Cc1noc(C)c1S(=O)(=O)Nc1ccc2c(c1)C(=O)N([C@H](C)CO)C[C@H](C)[C@H](CN(C)S(=O)(=O)c1ccc(F)cc1)O2	12
O=C(CSc1ncnc2scc(-c3ccccc3)c12)c1ccccc1	-11
Cc1ccc(S(=O)(=O)N(C)C[C@H]2Oc3c(NC(=O)NC4CCCCC4)cccc3C(=O)N([C@@H](C)CO)C[C@@H]2C)cc1	3
COC(=O)C(O)(c1c(C)nn(-c2ccccc2)c1N)C(F)(F)F (configuration not stated)	-4
C[C@H](CO)N1C[C@H](C)[C@H](CN(C)Cc2ccc(Oc3ccccc3)cc2)Oc2ccc(NC(=O)Nc3ccc(F)cc3)cc2C1=O	66

Sorted by length of the SMILES (descending): some entries from above.
SMILES	NOMO-1 viab
Cc1noc(C)c1S(=O)(=O)Nc1ccc2c(c1)C(=O)N([C@H](C)CO)C[C@H](C)[C@H](CN(C)S(=O)(=O)c1ccc(F)cc1)O2	12
C[C@H]1CN([C@@H](C)CO)C(=O)Cc2cc(NC(=O)NC3CCCCC3)ccc2O[C@@H]1CN(C)C(=O)Nc1ccc2c(c1)OCO2	20
Cc1ccc(S(=O)(=O)N(C)C[C@H]2Oc3c(NC(=O)NC4CCCCC4)cccc3C(=O)N([C@@H](C)CO)C[C@@H]2C)cc1	3
Cc1ccc(-n2c(SCC(=O)NCC3CCCO3)nc3sc(C)c(C)c3c2=O)cc1C (configuration not stated)	1
COC(=O)C(O)(c1c(C)nn(-c2ccccc2)c1N)C(F)(F)F (configuration not stated)	-4
Oc1cc(Cc2ccccc2)cnc1CN1CCOCC1	14

(listing goes on)
SMILES	NOMO-1 viab
CN(c1cccc(NC(=O)c2ccc(CN3CCOCC3)cc2)c1)S(C)(=O)=O	8
CNC[C@H]1OCCCC[C@@H](C)Oc2ccc(NC(=O)Nc3ccc4c(c3)OCO4)cc2C(=O)N([C@H](C)CO)C[C@@H]1C	21
COc1cc(O)c(Oc2cc(C)cc(O)c2C(=O)O)c(CO)c1	25
COc1cccc(-c2nn(-c3ccccc3)cc2C(=O)NCC(=O)O)c1	-1
CNC(=O)CCc1nc(-c2ccc(Cl)cc2)no1	9
CCc1ccc(NC(=O)CSc2nnc(-c3ccc(Cl)cc3)n2C)cc1	7
COc1ccc(CN(C)C[C@@H]2Oc3c(NC(=O)NC4CCCCC4)cccc3C(=O)N([C@H](C)CO)C[C@H]2C)cc1	50
COc1ccc(S(=O)(=O)Nc2ccc3c(c2)C(=O)N([C@H](C)CO)C[C@@H](C)[C@@H](CN(C)S(=O)(=O)c2ccc(OC)cc2)O3)cc1	0
CC(=O)Nc1c(N)c2ccccc2oc1=O	1
CC(C)(C)NC(=O)c1ccccc1	21

A different layout for some results above:
COc1cccc(-c2nn(-c3ccccc3)cc2C(=O)NCC(=O)O)c1
  NOMO-1 viab = -1
CNC(=O)CCc1nc(-c2ccc(Cl)cc2)no1
  NOMO-1 viab = 9

(more compounds)
SMILES	NOMO-1 viab
Cc1ccc2nc(-c3ccncc3)cc(C(=O)NC(C)c3cnn(C)c3C)c2c1 (configuration not stated)	23
Cc1noc(C)c1NC(=O)N(C)C[C@@H]1Oc2ccc(NC(=O)CCCN(C)C)cc2C(=O)N([C@@H](C)CO)C[C@@H]1C	-9
CC(C)NC(=O)Nc1cccc2c1O[C@@H](CN(C)Cc1ccccc1)[C@@H](C)CN([C@@H](C)CO)C2=O	0
CC(C)NC(=O)N(C)C[C@@H]1Oc2ccc(NS(=O)(=O)c3cn(C)cn3)cc2CC(=O)N([C@H](C)CO)C[C@@H]1C	-6
COc1cccc2cc(C(=O)C3C(=O)C(=O)N(Cc4ccco4)C3c3ccc(F)cc3)oc12 (configuration not stated)	10
COc1cccc(CNc2nc3ccccc3n2CCN2CCOCC2)c1O	25
COc1ccc(NC(=O)C(=O)NCc2cccnc2)cc1	2
Cc1cc(OCC(=O)Nc2ccc(CC#N)cc2)ccc1[N+](=O)[O-]	44
C[C@H]1CN([C@@H](C)CO)C(=O)Cc2cc(NC(=O)Nc3cccc4ccccc34)ccc2O[C@@H]1CN(C)Cc1ccc2c(c1)OCO2	34
O=C(CSc1n[nH]c(-c2ccc(Cl)cc2)n1)Nc1ccccc1Cl	44
CC(Sc1ncn(-c2ccccc2)n1)C(=O)Nc1ccc(Cl)cc1 (configuration not stated)	8
C[C@@H]1CN([C@H](C)CO)C(=O)Cc2cc(NC(=O)Nc3ccc4c(c3)OCO4)ccc2O[C@@H]1CN(C)C(=O)Nc1ccc(C(F)(F)F)cc1	8
Cc1ccccc1NC(=O)CN1C(=O)c2ccccc2C1=O	6
CCc1ccc(-n2nc3ccc(NC(=O)COc4ccccc4[N+](=O)[O-])cc3n2)cc1	33
C[C@@H]1CN([C@H](C)CO)C(=O)Cc2cc(NC(=O)Nc3ccc(F)cc3)ccc2O[C@@H]1CN(C)Cc1ccc2c(c1)OCO2	31
C[C@@H]1CCCCO[C@H](CN(C)C)[C@@H](C)CN([C@H](C)CO)C(=O)c2cc(NC(=O)Nc3cccc4ccccc34)ccc2O1	9
C[C@@H]1CN([C@H](C)CO)C(=O)c2cccc(NS(=O)(=O)c3ccc(F)cc3)c2O[C@@H]1CN(C)Cc1ccc(-c2ccccc2)cc1	65
O=C(O)CCC(=O)Nc1ccc(NC(=O)c2cccs2)cc1	17
Cc1noc(C)c1S(=O)(=O)N(C)C[C@@H]1Oc2ccc(NS(C)(=O)=O)cc2CC(=O)N([C@@H](C)CO)C[C@@H]1C	4
CCCn1c(-c2ccc(F)cc2)n[nH]c1=O	-16
C[C@H](CO)N1C[C@H](C)[C@H](CN(C)S(=O)(=O)c2cn(C)cn2)Oc2ccc(NC(=O)Cn3cnnn3)cc2CC1=O	-6
C[C@@H]1CN([C@@H](C)CO)C(=O)c2cccc(NC(=O)C3CCCCC3)c2O[C@H]1CN(C)Cc1ccc(C(F)(F)F)cc1	105*
CC1(C)CC(=O)c2c([nH]c(-c3ccccc3)c2-c2ccccc2)C1	92*
Cc1noc(C)c1NC(=O)Nc1ccc2c(c1)C(=O)N([C@@H](C)CO)C[C@H](C)[C@H](CN(C)Cc1ccc(C(=O)O)cc1)O2	0
Cc1cccc(NC(=O)CN(c2ccccc2F)S(C)(=O)=O)c1	13
CCOC(=O)c1nnn2c1nc(Sc1nnc(-c3ccncc3)n1C)c1ccccc12	117*
C[C@H]1CN([C@@H](C)CO)C(=O)c2cc(NC(=O)C3CCCCC3)ccc2O[C@H]1CN(C)Cc1ccc(-c2ccccc2)cc1	3
O=C(Cc1ccccc1[N+](=O)[O-])Nc1ccccc1CO	-32
C[C@@H]1CN([C@H](C)CO)C(=O)c2cc(NC(=O)CCC(F)(F)F)ccc2O[C@H]1CN(C)S(=O)(=O)c1cn(C)cn1	-4
COc1ccc(CCNC(=O)c2ccccc2Sc2ccccc2C#N)cc1OC	7
C[C@@H]1CN([C@H](C)CO)C(=O)c2cc(NS(=O)(=O)c3ccc(F)cc3)ccc2O[C@@H]1CN(C)Cc1ccc(Cl)c(Cl)c1	47
COc1cc(-c2nnc(SCC(=O)c3ccc(Cl)cc3)n2C)cc(OC)c1OC	34
COc1ccc(CN(C)C[C@H]2Oc3c(NS(=O)(=O)c4ccc(OC)cc4)cccc3C(=O)N([C@H](C)CO)C[C@H]2C)cc1	21
Cc1noc(C)c1NC(=O)N(C)C[C@H]1Oc2ccc(NC(=O)CCCN(C)C)cc2C(=O)N([C@@H](C)CO)C[C@H]1C	-12
C[C@H](CO)N1C[C@H](C)[C@H](CN(C)Cc2ccc(C(=O)O)cc2)Oc2c(NC(=O)Nc3ccccc3)cccc2C1=O	-7
C[C@@H]1CN([C@@H](C)CO)C(=O)c2cccc(NC(=O)c3nc4ccccc4s3)c2O[C@H]1CN(C)C(=O)Nc1ccc(F)cc1	23
COC1CC(OC2CCC3(C)C(CCC4(O)C3CC(OC(=O)c3ccccc3)C3(C)C(O)(C(C)=O)CCC43O)C2)OC(C)C1OC1CC(OC)C(OC2OC(C)C(OC3OC(CO)C(O)C(O)C3O)C(OC)C2O)C(C)O1 (configuration not stated)	36
COc1ccc(OCC(=O)Nc2cc(Cl)ccc2N2CCOCC2)cc1	57
COc1cc(O[C@@H]2O[C@H](CO)[C@@H](O)[C@H](O)[C@H]2O)c2c(=O)cc(-c3ccccc3)oc2c1OC	18
Cc1ccc(S(=O)(=O)N(C)C[C@H]2Oc3c(NC(=O)c4nc5ccccc5s4)cccc3C(=O)N([C@H](C)CO)C[C@@H]2C)cc1	47
C[C@H](CO)N1C[C@H](C)[C@H](CN(C)S(=O)(=O)c2ccc(F)cc2)Oc2c(NC(=O)C3CC3)cccc2C1=O	-3
C[C@@H]1CN([C@H](C)CO)C(=O)c2cc(NC(=O)Nc3ccc4c(c3)OCO4)ccc2O[C@H]1CN(C)C(=O)Nc1ccccc1	-3
Cc1ccc(S(=O)(=O)Nc2cccc3c2O[C@H](CN(C)Cc2ccc(-c4ccccc4)cc2)[C@@H](C)CN([C@@H](C)CO)C3=O)cc1	19
Cc1c(O)nc(SC2CC(=O)N(c3ccccc3)C2=O)[nH]c1=O (configuration not stated)	26
C[C@@H]1CCCCO[C@@H](CN(C)Cc2ccc(Cl)c(Cl)c2)[C@@H](C)CN([C@H](C)CO)C(=O)c2cc(NS(=O)(=O)c3ccc(F)cc3)ccc2O1	99*
CC1(C)Cc2c(sc3c2c2ncnn2c2nnc(SCC(=O)NCc4ccccc4)n32)CO1	19
COc1ccc(NC(=O)N(C)C[C@@H]2Oc3ccc(NC(=O)c4ccncc4)cc3C(=O)N([C@@H](C)CO)C[C@H]2C)cc1	7
Cc1ccc(S(=O)(=O)N(C)C[C@@H]2Oc3ccc(NS(C)(=O)=O)cc3CC(=O)N([C@@H](C)CO)C[C@@H]2C)cc1	21
C[C@H]1CN([C@@H](C)CO)C(=O)c2cc(NC(=O)Nc3cccc4ccccc34)ccc2O[C@H]1CN(C)C(=O)Nc1ccc(C(F)(F)F)cc1	28
C[C@@H]1CN([C@@H](C)CO)C(=O)c2cc(NC(=O)CCN3CCOCC3)ccc2O[C@H]1CN(C)Cc1ccc(C(F)(F)F)cc1	17

Gathered by group, the compounds so far containing a cyano group
SMILES	NOMO-1 viab
Cc1cc(OCC(=O)Nc2ccc(CC#N)cc2)ccc1[N+](=O)[O-]	44
COc1ccc(CCNC(=O)c2ccccc2Sc2ccccc2C#N)cc1OC	7

(further entries)
SMILES	NOMO-1 viab
CCC(Oc1cccc(NC(=O)c2cccc(OC)c2)c1)C(=O)c1ccccc1 (configuration not stated)	-13
O=C(CCN1C(=O)c2ccccc2S1(=O)=O)Nc1cccc2ccccc12	-1
COc1ccc(OC)c(N(CC(=O)Nc2cccc(Cl)c2C)S(C)(=O)=O)c1	-6
CCN(CC(=O)Nc1cccc(Cl)c1C)S(=O)(=O)c1ccc(F)cc1	20
CNC[C@@H]1Oc2ccc(NC(=O)C3CC3)cc2C(=O)N([C@H](C)CO)C[C@H]1C	15
C[C@H]1CN([C@@H](C)CO)C(=O)c2cccc(NC(=O)CCCCCC(=O)Nc3ccccc3N)c2O[C@@H]1CN(C)C(=O)Nc1ccc(F)cc1	21
C[C@@H]1CCCCO[C@H](CN(C)S(=O)(=O)c2ccccc2)[C@@H](C)CN([C@H](C)CO)C(=O)c2cc(NS(=O)(=O)c3ccccc3)ccc2O1	-7
CN(C)CCNc1oc(COc2ccc(Br)cc2)nc1C#N	-9
Cc1cc(C(=O)Sc2cccc(Br)c2)nn1C(C)(C)C	34
O=C(COc1ccc2oc3c(c2c1)CCCC3)NCCN1CCOCC1	11
COc1ccc(CN(C)C[C@@H]2Oc3ccc(NS(=O)(=O)c4ccccc4)cc3C(=O)N([C@H](C)CO)C[C@@H]2C)cc1	-5
C[C@@H]1CN([C@H](C)CO)C(=O)Cc2cc(NS(=O)(=O)c3cn(C)cn3)ccc2O[C@@H]1CN(C)S(C)(=O)=O	5
C[C@@H]1CN([C@H](C)CO)C(=O)c2cc(NC(=O)NC3CCCCC3)ccc2O[C@@H]1CN(C)Cc1ccc(Cl)c(Cl)c1	37
COc1ccc(S(=O)(=O)Nc2ccc3c(c2)CC(=O)N([C@@H](C)CO)C[C@H](C)[C@H](CN(C)C(=O)Nc2c(C)noc2C)O3)cc1	-7
COc1ccc(C)cc1NC(=O)CSc1nc2ccccc2c(=O)n1-c1ccc(Cl)cc1	16
COc1ccc(Nc2nc(N)nc(CSc3nncn3C)n2)cc1	-5
S=C(NCc1ccccc1Cl)NC12CC3CC(CC(C3)C1)C2	115*
C[C@H](CO)N1C[C@H](C)[C@H](CN(C)Cc2ccc(-c3ccccc3)cc2)Oc2ccc(NS(C)(=O)=O)cc2CC1=O	47
O=C(Nc1c(Cl)cc(Cl)cc1C(=O)NCCN1CCOCC1)c1cccc([N+](=O)[O-])c1	-24
Cc1ccc(NC(=O)C(C)Sc2nnc(C)s2)cc1 (configuration not stated)	-4
C[C@H](CO)N1C[C@H](C)[C@H](CN(C)Cc2ccc(C(F)(F)F)cc2)Oc2ccc(NC(=O)Nc3ccccc3)cc2C1=O	15
C[C@H](CO)N1C[C@H](C)[C@H](CN(C)Cc2ccc(Cl)c(Cl)c2)Oc2ccc(NC(=O)Cc3ccccc3)cc2C1=O	7

Source: PubChem BioAssay (Broad Institute)
